High-throughput results (PubChem BioAssay)
HIV Env fusion: inhibitors of HIV-1 Env-driven cell-cell fusion, primary screen, HeLa-JRFL effector, CEM21 target cells, luciferase. AID 651610, 2012. inhibition, % at 12.3 µM. 1.1% of 360,000 active;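 active = mean replicate inhibition score of at least 50 and every replicate individually at or above 50; inconclusive = only one of the two criteria met; inactive = mean below 50 and not all replicates reaching 50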;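 note: 0% = plate neutral controls and 100% = maraviroc near 300 nM; one replicate is shown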
Numbers without * were called inactive; ? = inconclusive; [ ] = dose if it differs, or a comment. Some of the compounds tested, so the mix of outcomes need not match the whole.

SMILES	HIV Env fusion
CN(c1cccnc1)c1ccc(NC(=O)Cc2c[nH]c3ccccc23)cc1-c1ccc(C(C)(C)C)cc1	11
COc1ccc(-c2ccc3c(c2)[C@@H]2[C@@H](CCN2C(=O)NC2CCCC2)[C@H](CO)N3C)cc1	59*[16.7 µM]
CN1C(=O)c2cc(NC(=O)c3cccc(C(F)(F)F)c3)ccc2OC[C@@H]2O[C@H](CC(=O)O)CC[C@@H]21	-3[16.7 µM]
C[C@H](CO)N1C[C@H](C)[C@@H](CN(C)C(=O)c2ccccc2)OCCCC[C@H](C)Oc2ccc(N(C)C)cc2C1=O	-16[16.7 µM]
Cc1ccc(CN(C)C[C@@H]2OCc3cn(nn3)CCCC(=O)N([C@H](C)CO)C[C@H]2C)cc1	9[16.7 µM]
COC(=O)C[C@@H]1C[C@H]2c3cc(NC(=O)CN(C)C)ccc3O[C@H]2[C@H](CO)O1	-9[16.7 µM]
Cc1ccc(S(=O)(=O)Nc2ccc3c(c2)C(=O)N([C@@H](C)CO)C[C@H](C)[C@H](CN(C)Cc2ccc(C(F)(F)F)cc2)O3)cc1	-10[16.7 µM]
O=C(Nc1cccc(Cl)c1)N[C@@H]1CC[C@H](CCn2cc(Cc3ccccc3)nn2)O[C@@H]1CO	-3[16.7 µM]
N#Cc1ccc(C(=O)NCC2CCN(C(=O)C(=O)c3cccs3)CC2)cc1	-22
Nc1nc2c(ncn2[C@@H]2O[C@H](C(=O)N[C@H](Cc3ccccc3)C(=O)NCCCc3ccccc3)[C@@H](O)[C@H]2O)c(=O)[nH]1	-57
C[C@H](CO)N1C[C@H](C)[C@@H](CN(C)C(=O)c2ccncc2)OCCCC[C@H](C)Oc2ccc(NC(=O)C3CCCCC3)cc2C1=O	4[16.7 µM]
Nc1nc2c(ncn2[C@@H]2O[C@H](C(=O)NCC(F)(F)F)[C@@H](O)[C@H]2O)c(=O)[nH]1	-10
Cc1ccc(NC(=O)Nc2ccc3c(c2)C(=O)N(C)[C@H]2CC[C@H](CC(=O)NCC(F)(F)F)O[C@H]2CO3)cc1	-15[16.7 µM]
CN1CCCCC(NC(=O)c2ccccc2)C1=O (stereo not given)	3
O=C(C[C@H]1C[C@@H]2c3cc(NC(=O)NC4CCCC4)ccc3O[C@@H]2[C@H](CO)O1)NCc1ccccc1F	-1[16.7 µM]
CN(C)CCCNC(=O)[C@H]1[C@H](CO)[C@H]2Cn3c(ccc(-c4ccccc4)c3=O)[C@@H]1N2C(=O)CC1CC1	-1[16.7 µM]
Cc1ccc(S(=O)(=O)NCC[C@H]2CC[C@@H](NC(=O)CC3CC3)[C@@H](CO)O2)cc1	-9[16.7 µM]
CCNC(=O)Nc1ccc2c(c1)C(=O)N(C)[C@H]1CC[C@@H](CC(=O)N[C@H](C)c3ccccc3)O[C@@H]1CO2	-1[16.7 µM]
COc1ccc(S(=O)(=O)Nc2ccc3c(c2)C(=O)N([C@H](C)CO)C[C@@H](C)[C@@H](CN(C)C)OCCCC[C@H](C)O3)cc1	-2[16.7 µM]
O=C(NCC(F)(F)F)[C@@H]1[C@@H](CO)[C@@H]2Cn3c(cccc3=O)[C@@H]2N1C(=O)C1CC1	-7[16.7 µM]
C[C@@H]1CN([C@@H](C)CO)C(=O)c2c(c3ccccc3n2C)-c2ccccc2CO[C@H]1CN(C)C(=O)[C@@H](Cc1ccccc1)N(C)C	-156[16.7 µM]
COC(=O)c1ccc2nc(-c3ccc(C)cc3)c(CC(C)(C)C)n2c1	29
O=C(Cc1ccncc1)NCC[C@H]1CC[C@H](NC(=O)C2CCC2)[C@H](CO)O1	24[16.7 µM]
CC(C)NC(=O)OC[C@H]1O[C@H](C#Cc2ccc(C(C)(C)C)cc2)C=C[C@H]1O	-16
CO[C@@H]1CN(C)C(=O)c2ccc(NC(=O)Cc3ccccc3)cc2OC[C@H](C)N(C(=O)c2ccccc2F)C[C@@H]1C	-31[16.7 µM]
O=C(C(=O)N1CCC(CNS(=O)(=O)c2ccc(F)cc2)CC1)c1cccs1	-19
COc1cccc(S(=O)(=O)Nc2ccc3c(c2)[C@@H]2C[C@@H](CC(=O)NCCc4ccccc4)O[C@@H](CO)[C@@H]2O3)c1	14[16.7 µM]
CO[C@@H]1CC[C@H]2CCOc3c(C#N)cccc3C(=O)N(C)C[C@@H](OC)[C@H](C)C(=O)N(C)C[C@@H]1O2	-14[16.7 µM]
CO[C@@H]1CN(C)C(=O)c2cc(NS(=O)(=O)c3ccc(C)cc3)ccc2OC[C@@H](C)N(C(=O)NC(C)C)C[C@@H]1C	-17[16.7 µM]
C[C@@H]1CN(C(=O)OC(C)(C)C)CCN1c1ccc(Br)c(C#N)c1	?
O=C(N[C@@H](Cc1cccnc1)C(=O)N1CCC[C@H]1C(=O)NC1CCCC1)c1ccc(Cl)c(Cl)c1	-3
CC(C)CC#Cc1ccc2c(c1)O[C@@H](CN(C)C(=O)C1CC1)[C@@H](C)CN([C@@H](C)CO)S2(=O)=O	37[16.7 µM]
CC(C)(C)[S@](=O)N1Cc2cc(C(=O)NCc3ccccc3F)nc(-c3cccc(-c4cccnc4)c3)c2[C@@H]1CCO	22[16.7 µM]
COC(=O)C(C(=O)OC)c1ccccc1NS(=O)(=O)c1cccc2ccccc12	18
CO[C@H]1CC[C@@H]2CCOc3c(C#N)cccc3C(=O)N(C)C[C@H](OC)[C@@H](C)C(=O)N(C)C[C@H]1O2	-14[16.7 µM]
CO[C@H]1CN(C)C(=O)c2cc(NS(=O)(=O)c3cccc(F)c3)ccc2OC[C@H](C)NC[C@H]1C	4[16.7 µM]
COc1cccc(C(=O)N[C@H](C(=O)N2CCC[C@H]2C(=O)NCCc2ccccc2Cl)c2ccccc2)c1	-2
Cc1noc(C)c1NC(=O)N(C)C[C@H]1Oc2ccc(NC(=O)CCC(F)(F)F)cc2C(=O)N([C@@H](C)CO)C[C@H]1C	-14[16.7 µM]
O=C(C[C@@H]1C[C@H]2c3cc(NC(=O)C4CCOCC4)ccc3O[C@H]2[C@H](CO)O1)NCc1ccc2c(c1)OCO2	-4[16.7 µM]
O=C(Nc1cccc(Cl)c1)N[C@H]1CC[C@H](CCn2cc(Cc3ccccc3)nn2)O[C@@H]1CO	-8[16.7 µM]
O=C1Nc2ccccc2C1=NN=Cc1ccco1	7
O=C(c1ccccc1F)N1C[C@H]2O[C@@H](CNS(=O)(=O)c3ccccc3)CC[C@H]21	55[16.7 µM]
O=C(N[C@H](Cc1ccccc1)C(=O)NCCCc1ccccc1)[C@H]1O[C@@H](n2ccc(=O)[nH]c2=O)[C@H](O)[C@@H]1O	6
O=C(C[C@@H]1CC[C@@H]2[C@H](COC[C@H](O)CN2Cc2cc(F)ccc2F)O1)N[C@@H]1CCN(Cc2ccccc2)C1	-27[16.7 µM]
COc1cccc(CN2[C@@H](CO)[C@H](c3ccccc3)C23CN(C(=O)C2CCCC2)C3)c1	-3[16.7 µM]
O=C(C[C@@H]1C[C@H]2c3cc(NC(=O)Nc4ccccc4)ccc3O[C@H]2[C@@H](CO)O1)NCc1ccccc1	-21[16.7 µM]
C[C@@H]1CN([C@H](C)CO)C(=O)c2cc(NC(=O)c3ccccc3)ccc2O[C@@H](C)CCCCO[C@H]1CN(C)C(=O)c1ccccc1	7[16.7 µM]
COc1ccc(NC(=O)Nc2ccc3c(c2)CC(=O)N([C@H](C)CO)C[C@@H](C)[C@@H](CN(C)CC2CCCCC2)O3)cc1	-10[16.7 µM]
C[C@H]1CN([C@@H](C)CO)C(=O)c2cccc(NC(=O)Nc3ccc(C(F)(F)F)cc3)c2O[C@H]1CN(C)S(=O)(=O)c1ccccc1	69*[16.7 µM]
CO[C@@H]1CN(C)C(=O)c2ccc(NC(=O)C3CC3)cc2OC[C@H](C)N(Cc2cccc(F)c2)C[C@@H]1C	-7[16.7 µM]
O=C(C[C@H]1CC[C@H]2[C@@H](COC[C@@H](O)CN2Cc2ccc(Oc3ccccc3)cc2)O1)N1CCc2ccccc2C1	5[16.7 µM]
CNC[C@@H]1Oc2ccc(NC(=O)Nc3ccccc3)cc2C(=O)N([C@H](C)CO)C[C@H]1C	-6[16.7 µM]
CN(C)c1ccc2c(c1)[C@H]1C[C@@H](CC(=O)NCc3ccccn3)O[C@@H](CO)[C@H]1O2	1[16.7 µM]
C[C@H](CO)N1C[C@H](C)[C@@H](CN(C)C(=O)Nc2ccc3c(c2)OCO3)OCc2ccccc2-c2ccccc2C1=O	15[16.7 µM]
CO[C@@H]1CN(C)C(=O)c2ccc(NC(=O)Nc3cc(F)ccc3F)cc2OC[C@H](C)N(C(=O)c2cnccn2)C[C@@H]1C	-3[16.7 µM]
CO[C@@H]1CN(C)C(=O)c2cc(NC(=O)C3CCCC3)ccc2OC[C@H](C)N(C(C)=O)C[C@H]1C	-1[16.7 µM]
Cc1cc(N2CCNC[C@H]2C)ccc1N1CCS(=O)(=O)CC1	4
C=C[C@@H](CO)NS(=O)(=O)c1ccc(Br)cc1	-23[16.7 µM]
COCC(=O)N1C[C@@H](C)[C@H](OC)CN(C)C(=O)c2ccc(NC(=O)c3cnccn3)cc2OC[C@@H]1C	5[16.7 µM]
O=C(NCc1nc2ccccc2[nH]1)C1=C[C@@H](c2coc3ccccc3c2=O)C[C@@H](OCCCCO)O1	10[16.7 µM]

As a working copy, 12 of the compounds above.
SMILES	HIV Env fusion
C[C@H]1CN([C@@H](C)CO)C(=O)c2cccc(NC(=O)Nc3ccc(C(F)(F)F)cc3)c2O[C@H]1CN(C)S(=O)(=O)c1ccccc1	69*[16.7 µM]
CO[C@@H]1CN(C)C(=O)c2ccc(NC(=O)C3CC3)cc2OC[C@H](C)N(Cc2cccc(F)c2)C[C@@H]1C	-7[16.7 µM]
O=C(C[C@H]1CC[C@H]2[C@@H](COC[C@@H](O)CN2Cc2ccc(Oc3ccccc3)cc2)O1)N1CCc2ccccc2C1	5[16.7 µM]
CNC[C@@H]1Oc2ccc(NC(=O)Nc3ccccc3)cc2C(=O)N([C@H](C)CO)C[C@H]1C	-6[16.7 µM]
CN(C)c1ccc2c(c1)[C@H]1C[C@@H](CC(=O)NCc3ccccn3)O[C@@H](CO)[C@H]1O2	1[16.7 µM]
C[C@H](CO)N1C[C@H](C)[C@@H](CN(C)C(=O)Nc2ccc3c(c2)OCO3)OCc2ccccc2-c2ccccc2C1=O	15[16.7 µM]
CO[C@@H]1CN(C)C(=O)c2ccc(NC(=O)Nc3cc(F)ccc3F)cc2OC[C@H](C)N(C(=O)c2cnccn2)C[C@@H]1C	-3[16.7 µM]
CO[C@@H]1CN(C)C(=O)c2cc(NC(=O)C3CCCC3)ccc2OC[C@H](C)N(C(C)=O)C[C@H]1C	-1[16.7 µM]
Cc1cc(N2CCNC[C@H]2C)ccc1N1CCS(=O)(=O)CC1	4
C=C[C@@H](CO)NS(=O)(=O)c1ccc(Br)cc1	-23[16.7 µM]
COCC(=O)N1C[C@@H](C)[C@H](OC)CN(C)C(=O)c2ccc(NC(=O)c3cnccn3)cc2OC[C@@H]1C	5[16.7 µM]
O=C(NCc1nc2ccccc2[nH]1)C1=C[C@@H](c2coc3ccccc3c2=O)C[C@@H](OCCCCO)O1	10[16.7 µM]

(more compounds)
SMILES	HIV Env fusion
CCS(=O)(=O)Nc1ccc2c(c1)C(=O)N(C)[C@@H]1CC[C@H](CC(=O)N3CCN(C)CC3)O[C@H]1CO2	4[16.7 µM]
C[C@H](CO)N1C[C@H](C)[C@H](CN(C)S(=O)(=O)c2cn(C)cn2)OCc2ccccc2-c2c(n(C)c3ccccc23)C1=O	15[16.7 µM]
O=C(C[C@@H]1CC[C@@H]2[C@H](COC[C@@H](O)CN2Cc2cc(F)ccc2F)O1)NCc1ccc(Cl)cc1	5[16.7 µM]
C[C@@H]1CN([C@@H](C)CO)C(=O)c2cc(C3=CCCC3)cnc2O[C@H]1CN(C)C(=O)C1CC1	-5[16.7 µM]
CO[C@H]1CC[C@H]2CCN(C)C(=O)CC3(CCCCC3)CN(C)C(=O)c3cc(C#N)ccc3OC[C@H]1O2	23[16.7 µM]
C[C@H](CO)N1C[C@H](C)[C@H](CN(C)C(=O)C2CC2)Oc2cc(C#CC(C)(C)O)ccc2S1(=O)=O	-30[16.7 µM]
O=C(C[C@@H]1C=C[C@H](NC(=O)Nc2cccc(F)c2)[C@@H](CO)O1)NCC1CCCCC1	9[16.7 µM]
O=C(C[C@H]1C[C@@H]2c3cc(NC(=O)C4CCOCC4)ccc3O[C@@H]2[C@@H](CO)O1)NCc1cccnc1	-17[16.7 µM]
CO[C@H]1CN(C)C(=O)c2cc(NC(=O)Nc3cccc(Cl)c3)ccc2OC[C@H](C)NC[C@H]1C	15[16.7 µM]
CCOC(=O)C1=C(C(=O)OCC)C2N(Cc3ccc(Br)cc3)c3ccccc3[C@@]23C[C@@H](C(=O)OC)N(S(=O)(=O)c2cccs2)C3=N1 (stereo not given in full)	59*
CCCNC(=O)C[C@H]1CC[C@@H]2[C@H](COc3ccc(NC(=O)c4ccc5c(c4)OCO5)cc3C(=O)N2C)O1	12[16.7 µM]
c1ccc(-c2ccccc2C2Cc3nnccc3CN2)cc1 (stereo not given)	-13
C[C@H](CO)N1C[C@H](C)[C@H](CN(C)Cc2ccc(-c3ccccc3)cc2)Oc2ccc(NC(=O)CCN3CCOCC3)cc2C1=O	5[16.7 µM]
C[C@H]1CN([C@@H](C)CO)C(=O)c2ccccc2-c2ccccc2CO[C@H]1CN(C)C	-10[16.7 µM]
COC(=O)C[C@H]1CC[C@H]2[C@H](COc3ccc(NC(=O)Nc4cc(C)cc(C)c4)cc3C(=O)N2C)O1	5[16.7 µM]
CC(C)NC(=O)Nc1cccc2c1O[C@@H](CN(C)S(=O)(=O)c1cccs1)[C@@H](C)CN([C@H](C)CO)C2=O	-131[16.7 µM]
C[C@@H]1CN([C@H](C)CO)C(=O)Cc2cc(NC(=O)CCN3CCOCC3)ccc2O[C@H]1CN(C)Cc1ccc(-c2ccccc2)cc1	8[16.7 µM]
CC=Cc1ccc2n(c1=O)C[C@H]1[C@H](CO)[C@@H](C(=O)N3CCc4ccccc4C3)[C@@H]2N1CC (mixture of isomers)	-3[16.7 µM]
C[C@H](NC(=O)C[C@H]1CC[C@H]2[C@@H](COC[C@H](O)CN2C(=O)Nc2cccc(Cl)c2)O1)c1ccccc1	-9[16.7 µM]
